Ecoli rRNA inh: inhibits bacterial ribosomal RNA function over humanized ribosomes; E. coli WT GFP vs humanized-ribosome RFP mutants, fluorescence, 24 h; hits give low values; DMSO median 0, no signal -100; hit rate 1.6% among 350,000; GFP signal change (wild-type ribosome), % (concentration not given with the values);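 active = significant combined selectivity score with lowered wild-type GFP, culture density cut under 30%, mutant RFP and density less affected; inactive = any of these conditions unmet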; also: one replicate is shown; some compounds called inactive have numbers as strong as hits
ALR inh: blocks human ALR sulfhydryl oxidase activity. P55789. purified ALR, DTT oxidation, H2O2 HRP-luminol luminescence. inhibition, % (no concentration beside the values). hit rate 3.8% among 290,000;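 active = mean and each replicate at 75% or more; inconclusive = only one of the two met; inactive = neither met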;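 also: stock transfer was 7.5 nL into about 7.5 µL; 0% = neutral wells and 100% = wells with inactivated enzyme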
Target sequence (P55789 whole entry, looked up): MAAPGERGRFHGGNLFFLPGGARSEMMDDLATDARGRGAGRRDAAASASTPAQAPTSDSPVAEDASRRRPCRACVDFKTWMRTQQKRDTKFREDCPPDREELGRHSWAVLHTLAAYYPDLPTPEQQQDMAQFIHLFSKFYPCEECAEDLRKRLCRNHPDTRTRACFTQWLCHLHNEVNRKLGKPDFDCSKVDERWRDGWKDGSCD
Beta apoptosis: beta cell apoptosis inhibition | INS-1E cytokine-induced death, ATP luminescence, 48 h; percent of positive-control rescue, neutral wells zero | protection from apoptosis, % (test concentration not listed) | hit rate 0.8% among 300,000 | AID 435005;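 active = all replicates at 75% or more, or half of them and the mean; inconclusive = half reach 75% but not the mean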;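 also: 0% = cytokine-treated negative control wells and 100% = positive control rescue; higher means more ATP so stronger rescue from cytokine killing; wells of about 40 µL received 100 nL stock; the first replicate is given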
RanGTP-Impb inh: inhibitors of RanGTP-importin-beta interaction, primary screen, biochemical, FRET, CFP-Ran, YFP-importin-beta, homogeneous. AID 2216. cell-free CFP-Ran/YFP-importin-beta FRET ratio. inhibition, % (test concentration not listed). hit rate 1.1% among 300,000;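 active = most replicates above 15%; inconclusive = exactly half above 15%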;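 also: 0% = DMSO wells and 100% = Ran loaded with GDP instead of GTP; wells of about 40 µL received 100 nL stock; the first replicate is given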
T cruzi inh: blocks replication of Trypanosoma cruzi | inhibition, % (no concentration beside the values) | hit rate 1.4% among 300,000 | T. cruzi beta-gal in NIH3T3, luminescence, 90 h;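 active = mean inhibition across valid replicates above about 55%, limit read from the data; inconclusive = mean below that limit but half or more replicates reach it; inactive = mean below it, under half of replicates reach it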;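 also: signal also drops with host cell toxicity which is not excluded here; 0% = plate median of DMSO wells and 100% = zero luminescence signal; higher percent means less beta-gal luminescence so fewer parasites; stock transfer was 50 nL into about 50 µL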
FGF22 binding: FGF22 (human) thermal shift binding; hit rate 1.5% among 340,000; calls only at 9.99 µM; recombinant FGF22 thermal shift, SYPRO orange fluorescence; percent of sucrose octasulfate shift, DMSO zero; Q9HCT0;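 active = melting point raised past a set limit in the mean and every replicate; inconclusive = no clear call; three in four hits are not shown here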
Target sequence (Q9HCT0 whole entry, looked up): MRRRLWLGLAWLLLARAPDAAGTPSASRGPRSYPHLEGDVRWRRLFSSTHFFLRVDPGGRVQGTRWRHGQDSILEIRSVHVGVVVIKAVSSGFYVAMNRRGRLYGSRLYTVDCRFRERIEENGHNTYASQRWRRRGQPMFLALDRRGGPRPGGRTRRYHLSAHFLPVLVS
AF4-AF9 inh: inhibitors of human MLL-AF4/AF9 interaction; P42568; AlphaScreen, biotin-AF4 peptide binding to FLAG-AF9; inhibition, % at 10 µM; hit rate 0.47% among 350,000; AID 651704;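 active = every replicate reaching a set inhibition limit, whatever the replicate mean, cut at about 25% in these data; inconclusive = mean inhibition reaches that limit but some replicates miss it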;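 also: 0% = plate neutral control median and 100% = total signal loss; the record names both 10 and 1 µM as test concentration; the first replicate is given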
Target sequence (P42568 whole entry, looked up): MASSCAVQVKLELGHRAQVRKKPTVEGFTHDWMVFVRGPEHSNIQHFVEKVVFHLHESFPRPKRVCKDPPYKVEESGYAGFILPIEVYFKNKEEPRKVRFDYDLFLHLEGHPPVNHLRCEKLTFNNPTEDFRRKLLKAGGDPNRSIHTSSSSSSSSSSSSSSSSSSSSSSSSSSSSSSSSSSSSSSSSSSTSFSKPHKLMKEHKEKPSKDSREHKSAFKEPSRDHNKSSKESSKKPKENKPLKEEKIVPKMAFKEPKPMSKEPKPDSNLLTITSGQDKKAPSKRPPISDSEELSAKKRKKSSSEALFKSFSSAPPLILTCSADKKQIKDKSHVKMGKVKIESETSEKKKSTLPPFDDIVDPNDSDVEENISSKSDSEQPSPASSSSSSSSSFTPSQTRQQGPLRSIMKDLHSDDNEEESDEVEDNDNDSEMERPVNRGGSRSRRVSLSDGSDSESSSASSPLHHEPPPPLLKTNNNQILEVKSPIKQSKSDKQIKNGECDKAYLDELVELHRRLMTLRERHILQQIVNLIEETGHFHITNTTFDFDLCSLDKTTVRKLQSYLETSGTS
Calb FLC: affects C. albicans growth with fluconazole; growth inhibition, % (concentration not given with the values); hit rate 0.57% among 300,000; AID 1979; C. albicans CaCi-2 (fluconazole-resistant clinical isolate) + fluconazole, Alamar Blue growth, 48 h;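 active = most replicates above 75%; inconclusive = exactly half above 75%; inactive = most below 75%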;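 also: all wells also contain fluconazole at 8 µg/ml as a sub-toxic cotreatment; 0% = median of DMSO wells and 100% = median of geldanamycin control wells; wells of about 8 µL received 7.5 nL stock; the first replicate is given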
Ecoli rRNA inh OD600: also measured in Ecoli rRNA inh; calls as there; OD600 change, %; measured here: OD600 growth;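 optical density of the mix in the first replicate; 0 = DMSO median and -100 = no signal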
Ecoli rRNA inh RFP: also measured in Ecoli rRNA inh; calls as there; RFP signal change, %; measured here: RFP humanized mutant strains;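 first replicate; 0 = DMSO median and -100 = no signal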
The depositor's hits bear a star; i = inactive; u = inconclusive; x = not tested or not shown.

SMILES	Ecoli rRNA inh	Ecoli rRNA inh OD600	Ecoli rRNA inh RFP	ALR inh	Beta apoptosis	RanGTP-Impb inh	T cruzi inh	FGF22 binding	AF4-AF9 inh	Calb FLC
Cc1cc(C(=O)NC2CCCc3c2cnn3-c2ccc(C)c(C)c2)no1 (centres undefined)	-10	-9	-4.3	89*	6	1.7	-5	i	-0.3	-17
Cc1cccc(NC(=O)CCCn2cc([N+](=O)[O-])cn2)n1	3	11	11	1	-3	0.4	0	i	-15	-5
O=C(NCC(=O)N1CCCC1C(=O)O)OC1CCCCC1 (centres undefined)	x	x	x	-9	5	-1.4	-7	x	x	6
Cc1cccc(-n2c(C)cc(/C=N\NC(=O)c3ccco3)c2C)c1	5	5	-1.3	u	2	2.0	-6	i	1.0	7
CCN(CC)S(=O)(=O)c1ccc2c(c1)nc(CCC(=O)Nc1ccc3c(c1)OCO3)n2CC	x	x	x	-44	-4	4.0	15	x	x	1
Cc1cc(C)c2c(CN3CCN(Cc4ccc5c(c4)OCO5)CC3)cc(=O)oc2c1	x	x	x	-2	-7	4.8	31	x	x	3
CC1(C)CC(=O)C(/C=N/c2ncccc2C(=O)O)=C(O)C1	x	x	x	-1	-1	5.5	-37	x	x	-15
Cc1ccc(Cn2c(=N)c(C(=O)NCC3CCCO3)cc3c(=O)n4cccc(C)c4nc32)cc1 (centres undefined)	5	6	-3.8	-5	11	-3.1	-12	i	-2.7	-1
O=C(Nc1ccccc1C(=O)NCC1CCCO1)c1ccccc1 (centres undefined)	x	x	x	-14	-1	0.1	-17	x	x	31
CCCCNC(=S)NCC(c1ccccc1)c1c[nH]c2ccccc12 (centres undefined)	-49*	-38*	-5.2*	26	-2	2.7	2	i	1.0	-7
COc1ccc(NC(=O)COC(=O)CCc2ccc(S(=O)(=O)N3CCOCC3)cc2)c(OC)c1	6	10	-1.1	x	1	x	x	i	-12	x
COc1ccc(C(=O)Nc2nnc(-c3ccc(F)cc3)s2)c(OC)c1	-6	2	8.2	x	x	u	-32	i	3.1	4

Whole records from above. Values in the order: Ecoli rRNA inh, Ecoli rRNA inh OD600, Ecoli rRNA inh RFP, ALR inh, Beta apoptosis, RanGTP-Impb inh, T cruzi inh, FGF22 binding, AF4-AF9 inh, Calb FLC
Profile of Cc1cc(C(=O)NC2CCCc3c2cnn3-c2ccc(C)c(C)c2)no1 (centres undefined) : -10, -9, -4.3, 89*, 6, 1.7, -5, i, -0.3, -17
Profile of CC1(C)CC(=O)C(/C=N/c2ncccc2C(=O)O)=C(O)C1 : x, x, x, -1, -1, 5.5, -37, x, x, -15

(cont.)
SMILES	Ecoli rRNA inh	Ecoli rRNA inh OD600	Ecoli rRNA inh RFP	ALR inh	Beta apoptosis	RanGTP-Impb inh	T cruzi inh	FGF22 binding	AF4-AF9 inh	Calb FLC
O=C(c1cnn(C(=O)CN2CCCC2=O)c1)c1ccccc1O	9	12	-1.0	75	-6	x	x	i	-12	x
COc1cccc(N2C(=O)CC(N3CCN(S(=O)(=O)c4ccccc4)CC3)C2=O)c1 (centres undefined)	x	x	x	-19	-8	-0.2	-11	x	x	-14
COc1c(Cl)cc(Cl)cc1CNCCNCCO	7	1	-1.3	-7	-2	0.8	0	i	9.6	0
Cc1cccc(C(=O)NC(=S)Nc2ccc(S(=O)(=O)N3CCN(C)CC3)cc2)c1	x	x	x	21	1	4.5	-6	x	x	-5
O=c1oc2ccccc2cc1-c1csc(Nc2nc3ccc(F)cc3s2)n1	x	x	x	-5	64	2.1	-17	x	x	-1
O=S(=O)(NCCCN1CCN(c2ccccc2F)CC1)c1cccc2cccnc12	x	x	x	95*	x	-1.4	-5	x	x	-1
Cc1ccc(C)c(N(CC(=O)NC2CCCC2)C(=O)c2cc3cc4cc(C)ccc4nc3s2)c1	8	11	-1.8	-8	4	-1.4	6	i	1.0	-5
S=c1[nH]nc(C23CC4CC(CC(C4)C2)C3)n1Cc1ccco1	x	x	x	26	-3	-1.1	13	x	x	3
CCC(C(=O)NC(C)CCc1ccco1)n1nc(C)n2c(cc3occc32)c1=O (centres undefined)	x	x	x	22	-4	0.3	-3	x	x	-7
O=C(Nc1ccc(-c2csc(Nc3ccccc3)n2)cc1)c1cc([N+](=O)[O-])cc(C(F)(F)F)c1	3	14	-5.6	0	14	-1.3	48	i	3.9	5
CCN(CC)CCN1C(=O)C2C(C(=O)Nc3cccc(C)c3)C3C=CC2(O3)C1C(=O)NC1CCCC(C)C1C (centres undefined)	-2	4	-4.1	0	-12	1.6	5	i	-6.6	-2
COc1ccc2nc(Nc3nc(CSc4ccc(C)cc4)cc(=O)[nH]3)nc(C)c2c1	12	10	-1.5	2	1	1.8	30	i	1.7	23
Cc1cc(=O)oc2cc(OC(=O)C3CCN(C(=O)c4ccc(F)cc4)CC3)ccc12	1	4	-3.9	x	x	8.6	-4	i	-1.8	2
CC1(C(=O)NCC2CCCO2)Oc2cccnc2NC1=O (centres undefined)	12	-8	1.7	0	-1	1.3	-13	i	-3.1	-2
CC1(C)Cc2c(sc(NC(=O)C(=O)NCC3CCCO3)c2C(N)=O)CO1 (centres undefined)	0	-1	-1.1	2	-3	3.8	-8	i	2.3	-5
COC(=O)c1c(NC(=O)CCCC(=O)O)sc2c1CCC2	5	0	5.5	4	0	2.4	4	i	0.9	-3
O=C(COC(=O)Cc1ccccc1F)Nc1cccc(F)c1	0	0	-1.3	36	-10	1.6	-29	i	-2.5	0
Cc1nonc1OCCN1CCN(c2ccccc2[N+](=O)[O-])CC1	-2	1	-1.7	-9	-3	-2.4	u	i	-2.0	-5
CC(C)(C)c1cc(CSC(=S)NC2CCS(=O)(=O)C2)c(Br)c(C(C)(C)C)c1 (centres undefined)	7	11	3.3	x	-40	-0.9	1	i	3.8	-2
Oc1c(C=C2N=c3ccccc3=N2)sc(=S)n1-c1ccc2ccccc2c1	-7	11	25	-26	9	1.0	-8	i	-3.3	-3
Cn1nnnc1Sc1ncnc2scc(-c3cccc(Br)c3)c12	6	10	-3.4	-3	-13	x	x	i	-0.1	x
O=C(CSc1nnc2scc(-c3ccccc3)n12)c1ccc2c(c1)OCCO2	7	6	1.6	-4	0	7.1	8	i	-3.8	-3
COc1ccc(Nc2ncnc3sc(C)cc23)c(OC)c1	-6	-9	-0.3	5	-2	-3.6	0	i	6.0	55
CCOc1ccc(/C=N/NC(=O)c2cc3ccccc3cc2OC)cc1	-7	4	1.8	-8	5	-2.3	1	i	-0.8	-13
CCOc1ccc(CC(=N)C2=C(O)CC(C)(C)CC2=O)cc1OCC	x	x	x	x	0	3.3	-4	x	x	27
Cc1cc(NC(=O)CSc2nnc(COc3cccc(C)c3C)n2Cc2ccco2)no1	7	7	-3.5	2	-7	1.8	9	i	-0.2	11
CCCS(=O)(=O)N1CCCC(C(=O)NCCN2CCOCC2)C1 (centres undefined)	x	x	x	2	-8	-0.2	-4	x	x	16
O=C(Nc1ccccc1)C1COc2ccccc2O1 (centres undefined)	14	-3	-1.1	-19	0	-1.7	-15	i	1.1	-10
COc1ccc(OC)c(N(C)S(=O)(=O)c2ccc3c(c2)N(C(C)=O)CCO3)c1	-5	1	5.4	-26	-8	0.0	5	i	2.4	1
Cn1c(=O)n(C)c2cc(N3CCCC3)c(NC(=O)c3cccc(F)c3)cc21	1	-3	1.6	x	-11	3.1	-7	i	0.8	1
COC(=O)C1Cc2c([nH]c3ccccc23)CN1C(C)=O (centres undefined)	3	5	0.1	-18	-1	5.5	-10	i	4.1	-5
CCn1cc(C(=O)NCCCN2CCCC(C)C2)c(=O)c2cc(S(=O)(=O)N(C)C3CCCCC3)ccc21 (centres undefined)	-8	-10	-0.2	-2	-2	1.3	17	i	5.6	6
Cc1ccc(OCC(=O)Nc2ccc3c(c2)nc2n3CCOC2)cc1	x	x	x	-21	2	1.5	-6	x	x	u
Cc1ccc(NC(=O)CSc2nc(C)c(Cc3ccccc3)c(=O)[nH]2)cc1C	-1	-2	-6.8	-4	-7	-2.7	-9	i	-0.8	-17
O=C(O)CCC(=O)/C=C/c1ccccc1	10	14	1.8	2	0	-4.8	11	i	-1.2	5
Cc1cccc(C)c1NC(=O)CCCN1C(=O)C(c2ccccc2)Oc2cccnc21 (centres undefined)	11	20	1.5	-2	6	1.5	3	i	0.8	-6
COc1ccc(CC(=O)NC(CC(=O)O)c2ccc(OC)cc2)cc1 (centres undefined)	x	x	x	0	-4	7.9	-4	x	x	-7
CN(C)c1ncc(S(=O)(=O)c2ccccc2)c(-c2ccc(Cl)cc2Cl)n1	x	x	x	-31	-9	1.5	-1	x	x	-11
CCOC(=O)C1CCCN(C(=O)/C=C/c2ccc(Cl)cc2)C1 (centres undefined)	-5	-6	-3.2	-1	-1	-2.6	-3	i	-2.5	-2
Brc1cccc(-c2nnc3sc(CNCc4ccco4)cn23)c1	-2	15	2.3	x	x	1.4	5	i	-2.4	-1
O=C(Nc1cccc(NC(=O)c2ccco2)c1)c1ccccc1	-2	-5	-3.1	-11	-3	-4.6	-1	i	2.4	7
Cc1ccc2c(C(=O)CN3CCN(C(=O)c4ccco4)CC3)c(C)[nH]c2c1	1	-2	7.9	-6	-8	-1.8	9	i	-0.6	3
CCOC(=O)Nc1cccc(OCC(=O)Nc2ccccc2OCC)c1	x	x	x	x	6	-0.7	22	x	x	-8
CCOc1cc(NC2CS(=O)(=O)CC2O)c(OCC)cc1NC(=O)c1ccccc1 (centres undefined)	x	x	x	89*	67	-3.6	-6	x	x	25
CC(C)(C)C(=O)NNc1nc(-c2ccccc2)c2cc(Br)ccc2n1	x	x	x	13	-4	-9.8	16	i	9.1	-18
COc1cc(C(=O)N/N=C/c2ccc(OC(=O)N3CCOCC3)cc2)cc(OC)c1OC	7	22	8.9	-13	7	0.5	9	i	2.2	-11
C/C(=N\n1cnnc1)c1ccc(C#N)cc1	23	22	0.9	-16	-7	0.4	-6	i	-1.4	-2
CC1(OC(=O)c2ccc(Cl)nc2)C(=O)C=C2C=C3CCCN3C=C2C1=O (centres undefined)	15	11	24	-18	3	x	x	i	0.0	x
Cc1ccc(Cc2cnc(NC(=O)CN3CCOCC3)s2)cc1Cl	x	x	x	39	0	2.6	9	x	x	8
CCN1/C(=C\C=C(C(C)=O)C(C)=O)Sc2ccccc21	-5	-18	68	99*	-2	3.3	17	i	6.0	10
CC(OC(=O)c1ccco1)C(=O)Nc1ccc(Cl)cn1 (centres undefined)	7	2	-1.4	x	1	-1.7	-10	i	0.2	5
O=C(c1cccnc1)N1CCN(S(=O)(=O)c2cccs2)CC1	9	6	-1.2	2	-6	4.2	-13	i	-0.3	6
Cc1nc(CS(=O)c2ccc(Cl)cc2)cc(NCc2ccc(Cl)cc2Cl)n1 (centres undefined)	x	x	x	-25	x	4.1	-8	x	x	u

Four of the entries above in order of their number in ALR inh, largest number first:
smiles	ALR inh
CCN1/C(=C\C=C(C(C)=O)C(C)=O)Sc2ccccc21	99*
Cc1ccc(Cc2cnc(NC(=O)CN3CCOCC3)s2)cc1Cl	39
O=C(c1cccnc1)N1CCN(S(=O)(=O)c2cccs2)CC1	2
Cc1nc(CS(=O)c2ccc(Cl)cc2)cc(NCc2ccc(Cl)cc2Cl)n1 (centres undefined)	-25

Screening results (PubChem)

Only part of the results is shown; rates above refer to the full screens.
